PINK1 modulator: A Quantitative High throughput Screen to Identify Chemical Modulators of PINK1 Expression. Potency, µM (titrated, usually from 76.6 µM), for the others: top-dose activation (PINK1 increase), actives largely listed as activators. 410,000 tested, 0.2% active. PINK1 immunofluorescence, high-content cytometry, 24 h. AID 624263, 2012; active = well fitted activation curve with a large enough effect; inconclusive = small, poorly fitted or top-dose-only effect; inactive = flat fitted curve, though single readings scatter; cell line not stated here;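 also: potency is read from the fitted curve at half-maximal effect; % of control where 0% means no effect; nearly all actives have a fitted effect of over 65% in size; a mitochondrial uncoupler was the plate control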
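Cells are seeded, rested 12 hours, then given compound at five concentrations or DMSO for 24 hours. After fixation, blocking and antibody staining, PINK1 amount and mitochondrial localization are scored; CCCP serves as control.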
Six1-Eya2 inh: qHTS Assay for Inhibitors of the Six1/Eya2 Interaction | AlphaScreen GST-Six1/His-Eya2 binding, biochemical; hits give low values; control for the full effect not named in the record | 360,000 tested, 0.56% active | activity change, % (test concentration not listed); in the data active = activity change below about -65%; inconclusive = about -30% to -65%; inactive = above about -30%; also: % is scaled to controls: 0 for no effect and ±100 for the full control effect; compound concentration not given in the record
Target sequence (O00167 whole entry, looked up): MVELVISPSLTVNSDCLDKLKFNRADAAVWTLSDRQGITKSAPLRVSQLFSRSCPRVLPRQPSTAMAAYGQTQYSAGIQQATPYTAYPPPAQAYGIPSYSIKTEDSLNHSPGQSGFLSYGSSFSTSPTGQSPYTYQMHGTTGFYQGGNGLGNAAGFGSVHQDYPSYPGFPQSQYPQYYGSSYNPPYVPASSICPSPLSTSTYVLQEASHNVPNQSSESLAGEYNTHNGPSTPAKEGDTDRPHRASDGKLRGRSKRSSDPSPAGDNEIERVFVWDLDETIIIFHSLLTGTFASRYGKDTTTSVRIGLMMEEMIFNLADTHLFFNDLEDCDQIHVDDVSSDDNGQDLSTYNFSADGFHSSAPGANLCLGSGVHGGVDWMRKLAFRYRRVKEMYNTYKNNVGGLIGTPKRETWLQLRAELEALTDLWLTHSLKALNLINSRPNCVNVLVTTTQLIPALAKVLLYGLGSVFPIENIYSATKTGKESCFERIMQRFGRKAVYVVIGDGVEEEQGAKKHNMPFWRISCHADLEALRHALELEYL
Target sequence (Q15475 whole entry, looked up): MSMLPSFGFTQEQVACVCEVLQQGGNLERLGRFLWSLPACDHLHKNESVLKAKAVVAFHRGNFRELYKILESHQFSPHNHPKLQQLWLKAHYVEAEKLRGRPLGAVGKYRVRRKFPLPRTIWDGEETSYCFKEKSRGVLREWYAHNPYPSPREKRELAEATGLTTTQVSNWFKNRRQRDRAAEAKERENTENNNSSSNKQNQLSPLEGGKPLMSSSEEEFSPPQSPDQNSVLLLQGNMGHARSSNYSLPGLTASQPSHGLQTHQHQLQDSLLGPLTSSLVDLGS
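Homogeneous AlphaScreen proximity assay pairing GST-Six1 with His-tagged Eya2 (added as 5X mix: 250 nM and 500 nM) in 50 mM Tris pH 8.0, 300 mM NaCl, 1 mM TCEP. Glutathione donor and nickel acceptor beads; 1 h, 37 °C, dark.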
D2 agonist: Beta-Arrestin HTS for Positive Allosteric Modulators of the Human D2 Dopamine Receptor: Agonists; D(2) dopamine receptor (Homo sapiens), P14416; DiscoveRx PathHunter D2 beta-arrestin, luminescence, 90 min; 100% = 57 uM dopamine signal; activation, % (test concentration not listed); 360,000 tested, 0.084% active; in the data active = activation above about 40%; inconclusive = about 15% to 40%; inactive = below about 15%; also: compound concentration not given in the record; the text of the record calls up to 30% inactive
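Agonist mode: compounds alone added to overnight-plated D2 PathHunter cells for 90 min at 37 C, with 57 uM final dopamine (EC100) defining full response. Beta-arrestin recruitment detected by chemiluminescent reagent, read after 1 h at ambient temperature.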
TRPML1 agonist: qHTS for Agonists of the Human Mucolipin Transient Receptor Potential 1 (TRPML1); Mucolipin-1 (Homo sapiens), Q9GZU1; TRPML1-expressing cells, Ca2+ dye fluorescence, FDSS; host cell line not named in the record; reference of the full effect not given here; activation, % (concentration not given with the values); 410,000 tested, 0.12% active; AID 624414, 2012; in the data active = activation above about 50%; inconclusive = about 30% to 50%; inactive = below about 30%; also: 0% is about no effect; the text of the record puts the active cut at 80%
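Tetracycline-induced TRPML1-DL cells are seeded and incubated overnight before loading with a no-wash Ca2+ dye and quencher. Agonist activity is taken from the 110 s fluorescence read following compound pin-transfer on an FDSS, before EC80 54-4 challenge.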
CtBP-E1A blk: qHTS Assay for Inhibitors of the CtBP/E1A Interaction; AlphaScreen GST-E1A/His-CtBP binding, 1536-well; hits give low values; control for the full effect not named in the record; activity change, % (no concentration beside the values); 340,000 tested, 0.49% active; AID 651724, 2012; in the data active means activity change below about -65%; inconclusive means about -30% to -65%; inactive means above about -30%; also: % is scaled to controls: 0 for no effect and ±100 for the full control effect; compound concentration not given in the record
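Homogeneous bead-based format: GST-tagged E1A captured on glutathione donor beads, His-tagged CtBP on nickel acceptor beads; compounds precede bead addition by 2 h at 37 °C.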
TRPML1 blocker: qHTS for Inhibitors of the Human Mucolipin Transient Receptor Potential 1 (TRPML1); Mucolipin-1 (Homo sapiens), Q9GZU1; TRPML1-inducible cells, Ca2+ dye fluorescence, FDSS; hits give low values; inhibition of EC80 agonist-evoked calcium signal; activity change, negative = inhibition, % (no concentration beside the values); 390,000 tested, 0.02% active; in the data active means activity change below about -50%; inconclusive means about -30% to -50%; inactive means above about -30%;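 also: stimulus is agonist 54-4 at its EC80 concentration; % is scaled to controls: 0 for no effect and ±100 for the full control effect; compound concentration not given in the record; the text of the record puts the active cut at -80%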
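Tet-induced TRPML1-DL cells loaded with Ca8 no-wash calcium dye were read kinetically on FDSS. Compound addition was followed by EC80 agonist 54-4 (4 uM final); inhibition was read over 110 s.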
* = called active by the depositor; ? = inconclusive; / = no result given; & = joins results of further samples; [ ] = another dose, or the depositor's remark.

| structure | TRPML1 agonist | PINK1 modulator | D2 agonist | TRPML1 blocker | CtBP-E1A blk | Six1-Eya2 inh |
| --- | --- | --- | --- | --- | --- | --- |
| O=C(CCSc1ccccc1)Nc1nnc(-c2ccccc2)o1 | 1.4 | 1.8% | 8.2 | -14 | 8 | 3 |
| Cc1ccc(-n2c(CCC(=O)O)ccc2-c2cccs2)cc1 | -0.8 | -1.5%[38.3 µM] | -1.9 | 23 | 7 | -8 |
| Cc1nn2c(CN(C(=O)CN3CCOCC3)c3ccccc3)nnc2c2ccccc12 | -0.7 | -0.1% | -0.8 | 17 | 8 | 3 |
| Clc1ccc(-c2nnc(-c3ccccc3)c(-c3ccccc3)n2)cc1 | -0.3 | 7.6% | -7.2 | 13 | 1 | 0 |
| CN(C(=O)COC(=O)Cc1c[nH]c2ccccc12)c1c(N)n(Cc2ccccc2)c(=O)[nH]c1=O | 2.5 | -0.1% | 10 | -15 | 1 | -3 |
| Cc1ccc(S(=O)(=O)N(C)/N=C2/C(=O)N(CC(=O)O)c3ccccc32)cc1 | -0.4 | -0.6% | 4.6 | 7 | 9 | 1 |
| CC1(C(=O)NCC2CC2)Cc2c(-c3cccc(C(F)(F)F)c3)ccnc2O1 (stereo unspecified) | -0.8 | 8.5% | 2.5 | / | 0 | -4 |
| CSc1ccc(CCNC(=O)c2cc3cc4cc(C)ccc4nc3s2)cc1 | 0.9 | 0.4% | / | -9 | / | / |
| CC(C)(C)NC(=O)CSc1nc(O)cc(=O)n1-c1ccccc1 | 0.0 | / | -0.1 | 3 | 1 | 1 |
| O=C(O)CCNS(=O)(=O)c1ccc2c(c1)Cc1ccccc1-2 | -0.5 | 0.0% | 3.0 | 37 | -3 | 2 |
| O=C(O)COc1ccc(F)cc1Br | -0.7 | -0.1% | -4.2 | -1 | / | 9 |
| CC(=O)Nc1ccc(C(=O)CSc2nnc3scc(-c4ccccc4)n23)cc1 | 1.1 | 2.5%[38.3 µM] | -1.7 | 5 | 0 | -6 |
| CCOc1cc(/C=C/c2cc(C(F)(F)F)[nH]c(=O)n2)ccc1O | 4.4 | -0.9% | -4.0 | 10 | -1 | -4 |
| O=c1c2ccccc2oc2cc(-c3ccc4cc[nH]c4c3)ccc12 | -0.8 | -0.2% | 2.9 | 8 | -13 | 5 |
| CC(C)C(NC(=O)OCc1ccccc1)C(=O)OCC(=O)NC1CC1 (stereo unspecified) | 0.0 | 18% | -11 | -11 | 0 | -1 |
| CCN(CC(=O)Nc1ccc(NC(C)=O)cc1)C(=O)c1ccc(COc2ccccc2)o1 | 0.3 | 2.6% | -3.4 | 1 | / | -4 |
| CCc1ccc(C(=O)Nc2nnn(CC)n2)cc1 | -0.2 | 27%[38.3 µM] | -0.4 | 9 | 8 | 1 |
| Cc1cnc(C(=O)OCC(=O)Nc2sc3c(c2C#N)CCC3)cn1 | -0.4 | 3.9% | -3.9 | -4 | 6 | -11 |
| COC(=O)c1c(C(=O)OC)c2ccccn2c1C(=O)c1ccccc1 | -0.5 | -0.5% | 0.8 | 11 | 11 | 2 |
| COc1ccc(-n2c(COc3ccc(Cl)cc3Cl)n[nH]c2=S)cc1 | 0.0 | 1.4% | 0.1 | -2 | 3 | -13 |
| O=C(Nc1cccc(S(=O)(=O)N2CCOCC2)c1)c1ccc2c(=O)n3c(nc2c1)CCCCC3 | -0.3 | -0.3% | -6.3 | -17 | -5 | -6 |
| O=C(CNC(=O)c1ccccc1)OCc1ccc([N+](=O)[O-])cc1 | 1.4 | 6.0% | -2.7 | 47 | 3 | 13 |
| Cc1ccc(N(CCC(=O)NC(C)(C)C)S(=O)(=O)c2ccc(C)cc2)cc1 | -0.5 | -1.6% | 1.3 | 6 | 5 | 7 |
| Cc1cc(C)nc(NC(N)=NC(C)c2ccccc2)n1 (stereo unspecified) | 5.2 | 0.7% | -2.9 | 6 | 2 | -23 |
| O=C(NC(=Nc1ccccc1)N1CCOCC1)Nc1ccccc1 | -0.4 | ? | 0.3 | -1 | 46 | 25 |
| O=C(CCSc1nc(-c2ccco2)cc(C(F)(F)F)n1)Nc1cccc(O)c1 | 4.5 | 1.2% | / | -2 | / | / |
| O=C(CNCc1ccc(Cl)cc1)Nc1cccc(C(=O)O)c1 | 0.5 | -2.6% | -2.1 | 3 | -19 | -2 |
| CCCCCCCCN1[C@@H](CC(=O)O)c2cc(F)ccc2S1(=O)=O | 0.0&0.2 | -0.1% | -0.8 | -28 | 5 | 0 |
| C[C@H]1[C@H](c2ccccc2)C[C@@H](C(=O)O)C1(C)C | -0.1 | -0.2% | -1.7 | -15 | / | 4 |
| CCNC(=S)NNC(=O)c1cc(-c2ccccc2C)nc2ccccc12 | 3.1 | 7.5%[38.3 µM] | -11 | -6 | -1 | -4 |
| CCOc1ccc(NC(=O)CNS(=O)(=O)c2ccc(Br)s2)cc1 | -0.3 | 0.8% | / | -13 | / | / |
| Cc1ccc(Oc2c(C(F)(F)F)oc3c(CN4CCC(C)CC4)c(O)ccc3c2=O)cc1 | 0.5 | 2.2% | / | -3 | / | / |
| Cc1ccc(-c2ocnc2C(=O)Nc2ccccc2C(=O)N2CCCC2)cc1 | 0.5 | 4.2% | 0.3 | -14 | 7 | 1 |
| COc1ccc(C(O)c2nc(-c3ccc(F)c(Cl)c3)cs2)cc1 (stereo unspecified) | -0.7 | 5.3% | 3.8 | / | 14 | 7 |
| CCCC(=O)Nc1cc(C(F)(F)F)ccc1N1CCOCC1 | -1.3 | 1.9% | -1.7 | -4 | 3 | 1 |
| COc1ccc(CCNC(=O)C2CCCN(S(C)(=O)=O)C2)cc1 (stereo unspecified) | 0.2 | -1.2% | -3.5 | 16 | 0 | 3 |
| COc1ccc(-c2nn(CCC#N)cc2/C=N/O)cc1 | 0.5 | 1.4% | -0.7 | -20 | 2 | 3 |
| Nc1nc(N)nc(-c2cc(F)ccc2O)n1 | -0.2 | 1.6% | -0.7 | -4 | -2 | -2 |
| Cc1cnc(CNC(=O)c2ccc3oc(C(C)C)nc3c2)[nH]1 | 0.6 | 1.4% | 0.9 | 65 | -8 | -20 |
| COc1cc(OC)c(C(=O)c2ccccc2[N+](=O)[O-])c(OC)c1 | -0.6 | -0.2% | -2.9 | -9 | 2 | -13 |

3 records drawn at random from those above, as already listed:
| structure | TRPML1 agonist | PINK1 modulator | D2 agonist | TRPML1 blocker | CtBP-E1A blk | Six1-Eya2 inh |
| --- | --- | --- | --- | --- | --- | --- |
| Cc1cc(C)nc(NC(N)=NC(C)c2ccccc2)n1 (stereo unspecified) | 5.2 | 0.7% | -2.9 | 6 | 2 | -23 |
| Nc1nc(N)nc(-c2cc(F)ccc2O)n1 | -0.2 | 1.6% | -0.7 | -4 | -2 | -2 |
| COc1ccc(-n2c(COc3ccc(Cl)cc3Cl)n[nH]c2=S)cc1 | 0.0 | 1.4% | 0.1 | -2 | 3 | -13 |

Later entries.
| structure | TRPML1 agonist | PINK1 modulator | D2 agonist | TRPML1 blocker | CtBP-E1A blk | Six1-Eya2 inh |
| --- | --- | --- | --- | --- | --- | --- |
| CCOc1ncccc1C(=O)Nc1cccc(-c2nc3cccnc3s2)c1 | -0.4 | 1.5% | 1.3 | -8 | -5 | -11 |
| O=C(Cn1cc(C(=O)COc2ccccc2)c2ccccc21)NCc1ccco1 | 0.6 | 2.7% | -1.3 | 15 | -1 | 1 |
| COc1ccc(C2Nc3ccccc3C(=O)N2NS(C)(=O)=O)cc1 (stereo unspecified) | -0.6 | -1.7% | -2.7 | -7 | 0 | 2 |
| Cc1ccc(OCCC(=O)Nc2cc(S(=O)(=O)N3CCOCC3)ccc2N2CCCC2)cc1 | -0.1 | 2.4% | 4.3 | 19 | 0 | -2 |
| CCOC(=O)c1nnn(-c2nonc2-n2cccc2)c1CN1CCC(C(=O)OCC)CC1 | 2.3 | 13%[38.3 µM] | 2.6 | 24 | 2 | -2 |
| Cc1cc(Br)c2nc(-c3ccccc3)c(Cc3cccc(Cl)c3)n2c1 | 1.4 | 1.3% | / | / | -1 | -4 |
| O=C(NCCCN1CCCCC1)C1CCC(CNS(=O)(=O)c2cccc3nsnc23)CC1 (stereo unspecified) | -0.2 | -1.7% | -1.8 | 11 | 5 | 0 |
| Cc1ccc2nc3c(nc2c1C)CCCC3 | -0.3 | 1.1% | 0.6 | 15 | -8 | 1 |
| O=c1c2ccccc2c2ccccc2c(=O)n1Cc1cccnc1 | -0.1 | 1.2%[38.3 µM] | 0.0 | -4 | -26 | -18 |
| CCCC(c1nnnn1Cc1ccco1)N1CCN(C(=O)c2ccco2)CC1 (stereo unspecified) | -0.1 | -0.5% | -3.1 | -3 | 5 | 0 |
| COc1ccc(CCNC(=O)CSC2=NS(=O)(=O)c3cc(Cl)ccc3N2)cc1OC | 1.2 | 3.2% | -5.4 | 29 | -3 | 8 |
| Cc1ccc(CSc2n[nH]c(N)n2)cc1 | 0.4 | -0.2% | -8.2 | -9 | 0 | 2 |

4 of these compounds in a different format.
Cc1ccc(-n2c(CCC(=O)O)ccc2-c2cccs2)cc1
  TRPML1 agonist: -0.8; PINK1 modulator: -1.5%[38.3 µM]; D2 agonist: -1.9; TRPML1 blocker: 23; CtBP-E1A blk: 7; Six1-Eya2 inh: -8

Cc1nn2c(CN(C(=O)CN3CCOCC3)c3ccccc3)nnc2c2ccccc12
  TRPML1 agonist: -0.7; PINK1 modulator: -0.1%; D2 agonist: -0.8; TRPML1 blocker: 17; CtBP-E1A blk: 8; Six1-Eya2 inh: 3

Clc1ccc(-c2nnc(-c3ccccc3)c(-c3ccccc3)n2)cc1
  TRPML1 agonist: -0.3; PINK1 modulator: 7.6%; D2 agonist: -7.2; TRPML1 blocker: 13; CtBP-E1A blk: 1; Six1-Eya2 inh: 0

CN(C(=O)COC(=O)Cc1c[nH]c2ccccc12)c1c(N)n(Cc2ccccc2)c(=O)[nH]c1=O
  TRPML1 agonist: 2.5; PINK1 modulator: -0.1%; D2 agonist: 10; TRPML1 blocker: -15; CtBP-E1A blk: 1; Six1-Eya2 inh: -3
